MITF inhib: inhibitors of MITF, primary screen, MITF inhibitor project, cell-based, luminescence. TRPM1 promoter luciferase, 24 h. inhibition, % (concentration not given with the values). hit rate 0.28% among 37,000;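 active = most replicates at 85% or more, or half of them and the mean; inconclusive = half reach 85% but not the mean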;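 also: human melanocyte line stably carrying TRPM1 promoter luciferase reporter; 0% = vehicle wells and 100% = a positive control; the first replicate is given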
YB-1 expr inh: inhibitors of YB-1 gene expression, primary screen, cell-based, fluorescence; U2OS, qRT-PCR YB-1 vs CDIP delta delta Cp, 16 h; active compounds read high; zero = DMSO, each unit about twofold; hit rate 0.37% among 30,000; AID 434959, 2010; delta delta Cp (YB-1 minus CDIP) (no concentration beside the values);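 active = delta delta Cp rounded down to an integer at or above 3, about 3 SD of DMSO wells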;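 also: higher means less YB-1 transcript or more CDIP transcript relative to DMSO; stock transfer was 100 nL into about 100 µL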
Shh pathway inh: Hedgehog pathway signaling inhibitors, primary screen, luminescence, Shh-LIGHT2 cells, Gli-luciferase. hit rate 2.1% among 22,000. Shh-LIGHT2 Gli-luciferase reporter, 30 h. inhibition, % (no concentration beside the values). AID 2313, 2010;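 active = replicate mean of 65% or more; inconclusive = mean lower but half the replicates past it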;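 also: pathway switched on by Shh-conditioned medium diluted 1 in 25 in low serum; 100 nL library stock added to about 40 µL; 0% = median of neutral wells and 100% = positive control level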
PD-1 reversal: activators reversing PD-1 mediated T-cell inhibition, primary screen, luminescence, primary human CD4 T cells, PD-L1 beads; CellTiter-Glo 96 h; activation, % (no concentration beside the values); 29,000 tested, under 10 active; AID 2316, 2010;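 active = replicate mean of 50% or more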;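 also: 0% = median vehicle wells and 100% = positive control; 100 nL library stock added to about 50 µL; numbers are from one replicate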
* hit, by the source's call; ? = inconclusive; . = no result given.

SMILES	MITF inhib	YB-1 expr inh	Shh pathway inh	PD-1 reversal
C[C@H]1CN([C@@H](C)CO)C(=O)c2cc(N(C)C)ccc2O[C@H]1CN(C)S(=O)(=O)c1cn(C)cn1	-1	-0.22	.	.
C[C@@H]1CCCCO[C@H](CN(C)Cc2ccc(Cl)c(Cl)c2)[C@@H](C)CN([C@H](C)CO)C(=O)c2cc(NC(=O)CCC(F)(F)F)ccc2O1	4	-0.3	18	.
CC(C)c1ccc(NS(=O)(=O)c2ccc(N3C(=O)CCC3=O)cc2)cc1	20	-0.26	2	1.0
C[C@H]1CN([C@@H](C)CO)C(=O)c2cccc(NC(=O)c3ccncc3)c2O[C@H]1CN(C)C(=O)Nc1ccccc1	-12	0.68	-13	.
C[C@H](CO)N1C[C@H](C)[C@@H](CN(C)S(=O)(=O)c2ccccc2)Oc2ccc(NC(=O)C3CC3)cc2C1=O	-5	0.27	6	0.0
COc1cccc2ccc(Cl)nc12	2	-0.48	.	1.3
COc1ccc(C(=O)NCCNc2ccccc2[N+](=O)[O-])cc1	21	.	.	-0.2
C[C@H](CO)N1C[C@H](C)[C@H](CN(C)C(=O)Nc2ccc(C(F)(F)F)cc2)Oc2ccc(NC(=O)Nc3ccc4c(c3)OCO4)cc2CC1=O	13	0.35	-17	-4.7
Brc1ccc2nc(NCc3ccccn3)nc(-c3ccccc3)c2c1	30	.	.	-2.6
C[C@@H]1CN([C@H](C)CO)C(=O)c2cccc(NC(=O)Nc3ccccc3)c2O[C@H]1CN(C)S(=O)(=O)c1ccc(F)cc1	-5	0.16	11	3.8
C[C@@H]1CN([C@H](C)CO)C(=O)c2cccc(NC(=O)Nc3ccc(F)cc3)c2O[C@@H]1CN(C)Cc1ccncc1	-4	0.075	-81	-0.6
CCOC(=O)c1c(NC(=O)CN2C(=O)c3ccccc3S2(=O)=O)sc2c1CCCC2	15	.	.	0.8
COC(=O)c1c(NC(=O)CCN2C(=O)c3ccccc3C2=O)sc(C)c1-c1ccccc1	-12	.	.	0.4
COc1cccc(C2C(C(=O)c3cc4ccccc4o3)C(=O)C(=O)N2c2nc(C)c(C)s2)c1OC (configuration not stated)	-1	.	.	3.0
Cc1ccc(S(=O)(=O)Nc2cccc3c2O[C@@H](CN(C)Cc2ccc(C(F)(F)F)cc2)[C@H](C)CN([C@@H](C)CO)C3=O)cc1	1	-0.52	14	.
CC(=O)NC1C(=O)N=C(SC(C)C(=O)Nc2cccc(Cl)c2)NC1=O (configuration not stated)	0	.	.	1.4
CNC[C@@H]1Oc2ccc(NC(=O)NC3CCCCC3)cc2C(=O)N([C@@H](C)CO)C[C@@H]1C	-10	0.014	.	2.2
CCCCCCN(CCCCCC)C(=O)Cc1c(-c2ccc(F)cc2)[nH]c2ccccc12	17	0.19	-29	.
C[C@@H]1CN([C@H](C)CO)C(=O)c2cc(NC(=O)Nc3ccc(C(F)(F)F)cc3)ccc2O[C@H]1CN(C)C(=O)Nc1ccc(C(F)(F)F)cc1	24	-0.09	3	-3.8
CC(=O)N1CCN(c2ccc([N+](=O)[O-])c(NCc3cccnc3)c2)CC1	-16	.	.	-0.7
C[C@@H]1CN([C@@H](C)CO)C(=O)c2cc(NC(=O)Cc3cn(C)c4ccccc34)ccc2O[C@@H]1CN(C)S(=O)(=O)c1ccc(Cl)cc1	23	-0.4	-13	-1.5
Cc1nonc1OCCNc1cc(N2CCCC2)ccc1[N+](=O)[O-]	-105	.	.	-0.6
CN1C(=O)COc2ccc(C(=O)c3ccccc3C(=O)O)cc21	-14	0.095	-8	2.3
COC(=O)c1ccc(C(=O)OC)c(NC(=O)c2cnn3c(C(F)F)cc(-c4ccc(C)cc4)nc23)c1	14	.	.	1.2
C[C@@H]1CN([C@@H](C)CO)C(=O)c2cc(NS(=O)(=O)c3ccc(Cl)cc3)ccc2O[C@@H]1CN(C)S(=O)(=O)c1cccs1	21	0.38	.	-3.7
Nc1nnc(SC/C=C/CSc2nnc(N)s2)s1	-12	.	.	0.3
COc1ccc(-n2c(SCC(=O)NC3CCCCC3)nnc2-c2cccs2)cc1	12	.	.	0.3
O=S(=O)(/C=C/c1ccccc1)N1C=Cc2ccccc2C1c1c[nH]c2ccccc12 (configuration not stated)	48	-0.39	.	2.7
COc1ccc(S(=O)(=O)N(C)C[C@H]2Oc3ccc(NC(=O)C4CC4)cc3CC(=O)N([C@@H](C)CO)C[C@H]2C)cc1	3	0.14	-5	1.2
C[C@@H]1CN([C@H](C)CO)C(=O)c2cc(NC(=O)C3CC3)ccc2O[C@H]1CN(C)S(=O)(=O)c1ccc(F)cc1	4	0.87	.	1.3

Given as a markdown table: part of the list above
| Structure | MITF inhib | YB-1 expr inh | Shh pathway inh | PD-1 reversal |
| --- | --- | --- | --- | --- |
| COC(=O)c1ccc(C(=O)OC)c(NC(=O)c2cnn3c(C(F)F)cc(-c4ccc(C)cc4)nc23)c1 | 14 | . | . | 1.2 |
| C[C@@H]1CN([C@@H](C)CO)C(=O)c2cc(NS(=O)(=O)c3ccc(Cl)cc3)ccc2O[C@@H]1CN(C)S(=O)(=O)c1cccs1 | 21 | 0.38 | . | -3.7 |
| Nc1nnc(SC/C=C/CSc2nnc(N)s2)s1 | -12 | . | . | 0.3 |
| COc1ccc(-n2c(SCC(=O)NC3CCCCC3)nnc2-c2cccs2)cc1 | 12 | . | . | 0.3 |

(next part)
SMILES	MITF inhib	YB-1 expr inh	Shh pathway inh	PD-1 reversal
Cc1noc(C)c1S(=O)(=O)Nc1ccc2c(c1)CC(=O)N([C@@H](C)CO)C[C@H](C)[C@@H](CN(C)S(=O)(=O)c1ccccc1)O2	-32	0.043	-26	1.9
COc1ccc(S(=O)(=O)Nc2ccc3c(c2)C(=O)N([C@@H](C)CO)C[C@@H](C)[C@@H](CN(C)Cc2ccc(-c4ccccc4)cc2)O3)cc1	48	0.078	11	-1.7
CC(C)NC(=O)N(C)C[C@H]1Oc2ccc(NS(=O)(=O)c3cccs3)cc2C(=O)N([C@@H](C)CO)C[C@H]1C	-10	0.21	.	0.6
Clc1ccc(-c2onc3cc(-c4ccccc4)ccc23)cc1	0	-0.15	-42	-0.9
CSc1cccc(NC(=O)CN(C)S(=O)(=O)c2c(C)cc(C)cc2C)c1	-11	.	.	-0.4
COC(=O)c1ccc(C=Nc2ccc3oc(-c4ccc(C)cc4)nc3c2)cc1	-12	-0.17	-123	1.2
O=C(CSc1nnc(COc2ccccc2)o1)NCc1ccccc1	1	-0.63	.	-0.5
C[C@@H]1CCCCO[C@@H](CN(C)C(=O)Nc2ccccc2)[C@@H](C)CN([C@H](C)CO)C(=O)c2cc(NC(=O)Cc3ccccc3)ccc2O1	-17	0.17	5	0.0
Cc1ccc(NC(=O)CSc2nc(C)cc(-c3ccc(Cl)cc3)n2)cc1	-61	.	.	-1.5
CC(C)NC(=O)Nc1ccc2c(c1)CC(=O)N([C@H](C)CO)C[C@@H](C)[C@H](CN(C)Cc1ccccc1)O2	-6	0.23	.	-0.7
COc1ccc(OC)c(NC(=O)c2ccc(N(C)S(=O)(=O)c3ccc(OC)c(OC)c3)cc2)c1	25	.	.	-0.6
C[C@H]1CN([C@@H](C)CO)C(=O)c2cccc(NC(=O)Nc3ccccc3)c2O[C@@H]1CN(C)Cc1ccc2c(c1)OCO2	4	0.09	-17	-4.1
CC(=O)OCC(=O)[C@@]12OC(C)(C)O[C@@H]1C[C@H]1[C@@H]3C[C@H](F)C4=CC(=O)C=C[C@]4(C)[C@@]3(F)[C@@H](O)C[C@@]12C	-38	-0.31	9	.
C[C@@H]1CCCCO[C@H](CN(C)C(=O)Nc2ccc(C(F)(F)F)cc2)[C@@H](C)CN([C@H](C)CO)C(=O)c2cc(NS(=O)(=O)c3ccccc3)ccc2O1	36	0.19	24	.
C[C@@H]1CN([C@@H](C)CO)C(=O)c2cccc(NC(=O)c3ccc(-c4nccs4)cc3)c2O[C@@H]1CN(C)Cc1ccc2c(c1)OCO2	-18	-0.23	?	-0.3
C[C@H]1CN([C@@H](C)CO)C(=O)Cc2cc(NS(=O)(=O)c3ccc(Cl)cc3)ccc2O[C@@H]1CN(C)Cc1ccc(Cl)c(Cl)c1	27	-0.15	40	-1.5
C[C@H](CO)N1C[C@H](C)[C@H](CN(C)CC2CCCCC2)Oc2ccc(NC(=O)NC3CCCCC3)cc2CC1=O	-11	0.051	.	0.7
C[C@H]1CN([C@@H](C)CO)C(=O)c2cc(NC(=O)CCC(F)(F)F)ccc2O[C@H]1CN(C)Cc1ccc(Oc2ccccc2)cc1	-3	0.34	.	-5.2
O=c1c(C(F)(F)F)cccn1CCc1nc(-c2ccccc2)cs1	6	-0.24	-36	1.9
C[C@H](CO)N1C[C@H](C)[C@H](CN(C)Cc2ccccc2)Oc2c(NS(=O)(=O)c3cccs3)cccc2C1=O	-14	0.74	-34	0.6
Cc1ccc(N(CC(N)=O)S(C)(=O)=O)c(C)c1	-17	.	.	1.4
CCCC(=O)Nc1nc2c(ncn2C2O[C@H]3COP(=O)(O)O[C@@H]3[C@@H]2OC(=O)CCC)c(=O)[nH]1 (some centres not stated)	-4	-0.16	-20	2.0
CC(C)NC(=O)N(C)C[C@@H]1Oc2c(NC(=O)c3ccc(-c4nccs4)cc3)cccc2C(=O)N([C@@H](C)CO)C[C@@H]1C	-7	0.1	38	2.6
Cc1c(C)c(C)c(C(=O)c2ccccc2C(=O)NN)c(C)c1C	-17	0.14	13	-0.3
COc1ccc(CN(C)C[C@@H]2Oc3ccc(NC(=O)CCN4CCOCC4)cc3C(=O)N([C@@H](C)CO)C[C@H]2C)cc1	-1	-0.44	-4	-0.5
C[C@H]1CN([C@@H](C)CO)C(=O)c2cccc(NC(=O)Nc3ccc(F)cc3)c2O[C@@H]1CN(C)CC1CC1	-25	-0.051	-11	.
CC(C)Cn1c(SCC(=O)Nc2ccc(F)cc2F)nc2ccccc2c1=O	-4	-0.62	38	-0.8
C[C@@H]1CCCCO[C@H](CN(C)C(=O)c2ccccc2)[C@@H](C)CN([C@H](C)CO)C(=O)c2cc(NC(=O)c3ccncc3)ccc2O1	4	-0.36	-11	0.7
O=[N+]([O-])c1ccc(CSc2nnc(-c3cnccn3)n2-c2ccccc2)cc1	-4	.	.	-2.1
C[C@H]1CN([C@@H](C)CO)C(=O)c2cccc(NC(=O)c3cnccn3)c2O[C@@H]1CN(C)Cc1ccc(Cl)c(Cl)c1	-17	-0.24	26	0.2
CN1c2ccccc2C(=O)/C(=C\Nc2ncccn2)S1(=O)=O	9	-0.37	-3	0.3
C[C@H](CO)N1C[C@H](C)[C@H](CN(C)CC2CCCCC2)Oc2c(NS(=O)(=O)c3ccc(F)cc3)cccc2C1=O	-4	0.072	39	-0.8
C[C@@H]1CN([C@@H](C)CO)C(=O)c2cc(NS(=O)(=O)c3cn(C)cn3)ccc2O[C@H]1CN(C)CC1CC1	-4	-0.24	-12	.
COc1ccc(CN(C)C[C@@H]2Oc3ccc(NS(=O)(=O)c4ccc(Cl)cc4)cc3CC(=O)N([C@H](C)CO)C[C@@H]2C)cc1	15	0.046	6	.
C[C@H](CO)N1C[C@H](C)[C@@H](CN(C)S(=O)(=O)c2cn(C)cn2)Oc2c(NC(=O)Nc3ccc4c(c3)OCO4)cccc2C1=O	0	-0.061	2	.
Cc1cc(Br)ccc1NC(=O)Cn1ccc([N+](=O)[O-])n1	-7	.	.	0.6
C[C@@H]1CN([C@H](C)CO)C(=O)c2cccc(NS(C)(=O)=O)c2O[C@H]1CN(C)Cc1ccccc1	4	-0.34	-7	-3.7
CCCCc1nc(Cl)c(CO)n1Cc1ccc(-c2ccccc2-c2nn[nH]n2)cc1	-10	-0.036	-21	.
C[C@H]1CN([C@@H](C)CO)C(=O)c2cc(NS(=O)(=O)c3ccc(Cl)cc3)ccc2O[C@@H]1CN(C)S(=O)(=O)c1cccs1	-10	-0.12	.	2.8
C[C@@H]1CN([C@H](C)CO)C(=O)c2cc(NS(=O)(=O)c3ccc(F)cc3)ccc2O[C@@H]1CN(C)S(=O)(=O)c1cccs1	2	0.15	.	-0.4
O=c1c(O[C@@H]2O[C@H](CO[C@@H]3O[C@H](CO)[C@@H](O)[C@H](O)[C@H]3O)[C@@H](O)[C@H](O)[C@H]2O)c(-c2ccc(O)cc2)oc2cc(O)cc(O)c12	.	0.86	25	.
COC(=O)c1cc(NC(=O)COc2c(C)cc(Cl)cc2Cl)cc(C(=O)OC)c1	4	.	.	0.6
C[C@@H]1CN([C@@H](C)CO)C(=O)c2cccc(NC(=O)Nc3ccc(C(F)(F)F)cc3)c2O[C@@H]1CN(C)Cc1ccccc1	-26	-0.034	-23	-3.5
C[C@H](CO)N1C[C@H](C)[C@@H](CN(C)S(=O)(=O)c2ccc(Cl)cc2)Oc2ccc(NC(=O)Nc3ccccc3)cc2C1=O	-4	0.22	32	.
COc1ccc(NC(=O)CSc2nnc(C)n2-c2ccc(C)c(C)c2)cc1	-6	.	.	-1.1

Some of the compounds tested; count on the stated rates, not on these rows.
